Screening data as filed in PubChem BioAssay.
CapD inh – inhibitors of Bacillus anthracis CapD enzyme | purified CapD enzyme, fluorescence intensity read-out; active compounds read low; some hits fall short of the stated cut | z-score (test concentration not listed) | 0.23% of 140,000 active;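 active = z-score under -4 in either of two replicates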;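 also: stock transfer was 100 nL into about 40 µL; score is relative to mean and spread of the plate; one replicate is shown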
AID504770 – growth inhibitors of E. coli YBA685 in a screen for V. cholerae RctB (chromosome II replication) inhibitors | E. coli YBA685 rctB-dependent plasmid, OD600 growth, 3 h; active compounds read low | z-score (no concentration beside the values) | 0.27% of 130,000 active | AID 504770;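 active = z-score under -2 on both plates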;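 also: wells of about 30 µL received 100 nL stock; score is relative to mean and SD of the test wells; the first replicate is given; strong numbers were not always called active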
Starred values were filed as active, the others as inactive; i = inactive; . = not tested or not shown; & = joins results of further samples. Rows are unselected; about 0.39% have a hit in one of these screens.

Values in the order: CapD inh, AID504770
CS(=O)(=O)Cc1cc(Sc2ccccc2)nc(-c2ccncc2)n1
→ -0.73, .
O=C(OCc1ccc(Cl)cc1Cl)c1ccc2ccccc2n1
→ 0.24, 1.65
O=C(O)c1ccc2c(c1)C(=O)N(Cc1ccccc1)C2=O
→ 0.325, 0.2
Cc1ccc(S(=O)(=O)c2n[nH]n3c2nc(=O)c2ccccc23)cc1
→ 0.055, 0.1
COc1ccc(-c2nc3c(sc(=S)n3-c3ccccc3)c(=O)[nH]2)cc1
→ 0.71, 0.3
CCOC(=O)c1ccccc1NC(=O)Cn1ccsc1=N
→ ., -0.9
CSc1n[nH]c(NC(C)=O)n1
→ -0.105, .
C[C@@]12N[C@@H](Cc3ccccc31)c1ccccc12
→ -0.4, .
CS(=O)(=O)Nc1cccc(C2=NN(C(=O)c3ccco3)C(c3ccccc3F)C2)c1 (stereo unspecified)
→ -0.095, 1.85
O=C(OCN1C(=O)c2ccccc2C1=O)c1ccc2ccccc2n1
→ ., 0.55
CC(C)CC(=O)N1CCC2(CC1)CC(=O)c1ccccc1O2
→ ., 0.3
CC1CCc2cc(F)cc3c(=O)c(C(=O)O)cn1c23 (stereo unspecified)
→ 0.26&-0.17, -3.35*
CC1(C)CC(=O)C2=C(C1)OC1=C(C(=O)CC(C)(C)C1)C2c1ccc(C#Cc2ccccc2)cc1
→ -0.145, .
CC(Sc1nnnn1C)C(=O)NCC1CCCCC1 (stereo unspecified)
→ ., -0.2
O=C(O)Cn1c2ccccc2c2n[nH]c(=S)nc21
→ ., 1.3
O=C1C2C3C=C(Cl)C(c4ccccc43)C2C(=O)N1c1cccc(Br)c1 (stereo unspecified)
→ 1.1, .
COc1ccc(C(=S)N2CCNCC2)cc1
→ ., 0.3
O=C(Cc1ccccc1F)NCC1COc2ccccc2O1 (stereo unspecified)
→ ., 0.2
CN(C(=O)COc1ccc(Br)cc1)C1CCS(=O)(=O)C1 (stereo unspecified)
→ 0.17, -0.15
CCC(C)NS(=O)(=O)c1ccc(N)cc1 (stereo unspecified)
→ -0.24, -0.85
COC(=O)c1cc(N2CC(C)(C)C2=O)cc(N2CC(C)(C)C2=O)c1
→ -0.47, 0.5
CCOc1cc(C2C(C(=O)OCC3CCCO3)=C(C)NC3=C2C(=O)CC(c2cccs2)C3)cc([N+](=O)[O-])c1O (stereo unspecified)
→ -0.505, .
Cc1cccc(C)c1NS(C)(=O)=O
→ -0.04, 1
Cc1cnc(/N=C/NO)c(Br)c1
→ -0.62, -0.95
Cc1oc(C(C)(C)C)cc1C(=O)Nc1ccc(C(C)C)cc1
→ -0.65, 1.5
O=C(c1ccccc1)N(c1ccccc1)c1ccccc1
→ 0.105, -0.9
CCc1ccc(OCc2n[nH]c(=S)n2CC(C)C)cc1
→ ., 0.25
CCNC(=S)N1CCN(C(=O)OCC)CC1
→ 0.095, 0.7
CC(=O)c1ccc(N2CCN(c3ncnc4c3cnn4-c3cccc(C)c3)CC2)cc1
→ -0.275, .
O=C(CNCCCN1CCOCC1)Nc1ccc(OC(F)(F)F)cc1
→ ., 1.6

Of the compounds above, two have two or more sulfur atoms.
Values in the order: CapD inh, AID504770
CS(=O)(=O)Cc1cc(Sc2ccccc2)nc(-c2ccncc2)n1
→ -0.73, .
COc1ccc(-c2nc3c(sc(=S)n3-c3ccccc3)c(=O)[nH]2)cc1
→ 0.71, 0.3

More records.
Values in the order: CapD inh, AID504770
COc1cccc2cc(-c3csc(C)n3)c(=O)oc12
→ 1.83, -1.1
CC1CCCN(S(=O)(=O)c2cc(Cl)c(Cl)cc2Cl)C1 (stereo unspecified)
→ -0.12, .
O=C(NC(=O)c1cc2sccc2nc1C(F)(F)F)Nc1ccc(Cl)cc1
→ -0.655, .
CCC(CC)NC(=O)C(C)Nc1nc2ccccc2s1 (stereo unspecified)
→ ., 0.15
CC1=C(C(=O)Nc2cccc(F)c2)C(c2cccnc2)C2=C(CC(c3ccccc3)CC2=O)N1 (stereo unspecified)
→ 18.5, .
O=C(Nc1ccccc1C(=O)OCC(=O)N1CCCc2ccccc21)c1ccco1
→ ., 0.6
COC(=O)Cc1[nH]n(-c2ccc(F)cc2)c(=O)c1C(C)=NCCc1cnc[nH]1
→ ., 2.45
CC(=O)Nc1ccc2c(c1)nc1n2CCN(C2CCCCC2)C1
→ 1.85, 0.15
CCCCCn1c(=N)n(CCOc2ccccc2)c2ccccc21
→ 0.03, -0.75
Nc1nc(NCc2ccccc2)nc(NCc2ccccc2)c1[N+](=O)[O-]
→ -0.8, .
CCCN(S(=O)(=O)c1ccc(OCC)cc1)S(=O)(=O)c1cc(OC)ccc1OC
→ ., -2.4
CN(C)/C=C/c1snc(SCc2c(F)cccc2Cl)c1C#N
→ 0.22, .
Cc1nnc(SCc2ccc3c(c2)OCO3)s1
→ -0.09, -0.65
CCOC(=O)c1c(NC(=O)COc2ccccc2OC)sc2c1CCCC2
→ 0.44, 0
CCOc1ccc2c(c1)n(CO)c(=S)n2CO
→ 17.9, -1.25
O=C(NNC(=O)c1ccccc1O)OCCc1c(F)cccc1Cl
→ 4.87, .
CC(=O)N1c2ccccc2C(=O)C1N(Cc1cccs1)C1CCCC1 (stereo unspecified)
→ 32.2, 0.2
Cc1ccc(NCc2ccccc2)cc1
→ ., -0.5
O=C(c1cccs1)n1ccc(-c2ccccc2OCc2ccc(Cl)cc2)n1
→ 1.28, .
COC(=O)c1ccc(C2NC(=O)NC(=O)N2)cc1
→ ., 1.45
CCN1CCN(c2nc3c(c(=O)n(C)c(=O)n3C)n2Cc2ccc(Br)cc2)CC1
→ 0.025, .
O=C(Nc1ccc(Br)cc1F)C1CCC1
→ -1.39, -2.05
c1csc(-c2csc(-c3ccc4c(c3)OCCO4)n2)c1
→ 28.3, 0
Cc1noc(/C=C/N2CCOCC2)c1S(=O)(=O)N(C)CCc1ccc(Cl)cc1
→ -2.23, 0.25
O=C(CSc1nnc(-c2ccc3c(c2)OCO3)o1)OCCN1C(=O)c2ccccc2C1=O
→ ., 0.25
O=C(CNCC1(N2CCOCC2)CCCCC1)Nc1ccc(Cl)cc1
→ ., 0.25
CCCC(=O)NCc1ccc2[nH]c3c(c2c1)CCCC3
→ 0.15, -0.05
COc1ccccc1-c1cc(=O)c2ccccc2o1
→ 39.1, -0.35
FC(F)(F)c1cccc(NC2=NCCCS2)c1
→ -1.23, -0.25
O=c1[nH]c2cccnc2[nH]c1=O
→ 47.8, .
CSc1nnc2c(n1)OC(C)N(C(C)=O)c1ccccc1-2 (stereo unspecified)
→ -0.03, -1
CC1NC(=S)N(Cc2ccccc2)C1=O (stereo unspecified)
→ ., -0.35
COc1ccc2ncc(C(=O)c3ccc(C)c(C)c3)c(N3CCOCC3)c2c1
→ -1.67, -0.25
Cc1nn(C)c(C)c1/C=C/C(=O)C(C)(C)C
→ -2.51, -1.5
Cc1ccc(C(=O)c2c(NC(=O)c3ccncc3)sc3c2CCCC3)cc1
→ -0.7, -0.8
CCN(CC)CCSc1nc(O)c(C2CCCCC2)c(=O)[nH]1
→ -0.06, -0.9
CC1Cc2ccccc2N1C(=O)C12CCC(C)(C(=O)O1)C2(C)C (stereo unspecified)
→ 0.255, -1.3
O=C(Oc1ccc2ccccc2c1CN1CCOCC1)c1cc(=O)[nH]c2ccccc12
→ ., -0.8
Cc1ccc2nc(SCC(=O)NCc3ccco3)c(C)cc2c1
→ ., -0.25
O=C(O)CC(c1ccc(Cl)cc1)N1C(=O)CCC1=O (stereo unspecified)
→ -0.01, -0.65
Cc1nn2c(=O)cc(CSc3nc4ccccc4[nH]3)nc2s1
→ -0.37, 1.5
O=C(NNc1nc2cc3c(cc2s1)OCO3)c1ccccc1
→ ., -0.75
Cc1ccc(C=Nc2cccc3nsnc23)c(O)c1
→ -0.345, -0.25
N#Cc1ccc(OCC(O)CNC23CC4CC(CC(C4)C2)C3)cc1 (stereo unspecified)
→ ., 0.5
COc1cccc(C(=O)N2c3ccccc3Sc3ccccc32)c1
→ -0.265, .
OCc1nccn1Cc1ccc(Cl)cc1
→ -0.1, .
Nc1nnc(SCCN2C(=O)c3ccccc3S2(=O)=O)s1
→ -0.14, 1.2
O=C(CCCCl)NC(c1ccccc1)c1ccccc1
→ 0.18, -1.05
COc1ccccc1CN1CCN(Cc2ccccc2OC)CC1
→ ., -0.45
COc1ccc(-c2nnc(Nc3ccc4c(c3)ncn4C)c3ccccc23)cc1
→ -0.535, .
O=C(O)C1CCN(C(=O)C2CCCCC2)CC1
→ -1.31, -0.15
CC1CCCN(C(=O)C(Cc2ccccc2)NS(=O)(=O)c2ccc3c(c2)CCC(=O)N3)C1 (stereo unspecified)
→ 58.7, -1.1
Cc1cc(Nc2ccc(Cl)cc2)n2c(nc3ccccc32)c1C#N
→ -0.565, -0.05
C=C(C)CNC(=S)Nc1scc(-c2ccsc2)c1C(=O)OCC
→ -1.25, -0.05
C=CCNC(=S)NNc1nc(NCC)nc(NCC)n1
→ ., 0.8
Cc1cc(C)n(CCCNC(=O)/C=C/c2c(Cl)nc3ccccn23)n1
→ ., 0.05
COc1ccccc1NC(=O)Nc1cc(C(C)(C)C)nn1C
→ -1.29, 0.3
Clc1ccc(-c2ncnn2-c2ccc(Br)cc2)cc1
→ -0.08, -0.4
CC(Sc1ccc(Br)c2cccc(C(=O)O)c12)C(=O)O (stereo unspecified)
→ 0.22, -0.3
O=C(Cn1cc(C(=O)C2CC2)c2ccccc21)NCc1ccc2c(c1)OCO2
→ 0.18, -0.35

Carrying on.
Values in the order: CapD inh, AID504770
CCOc1cc(CNCc2cccnc2)cc(Cl)c1OCC(N)=O
→ ., 0.3
COc1cccc(-c2noc(-c3ccc(Br)o3)n2)c1
→ -0.54, 0.3
COC(=O)C1=C(NC(=O)Cc2ccccc2)CCS1
→ i, 0.5
O=C(CCn1nc(-c2ccc(Cl)cc2)ccc1=O)NC1CCCCC1
→ 0.475, -0.35
c1csc(-c2nc(-c3cc4ccccc4o3)cs2)c1
→ 2.29, -0.15
Cc1ccc(-[n+]2cc(Cl)on2)cc1
→ -1.04, -0.9
O=C1C(Nc2ccc(F)cc2)=CC(c2cccc3ccccc23)N1c1ccc(F)cc1 (stereo unspecified)
→ -0.185, .
COc1ccc(CCN(C)C(=O)c2cncc(Br)c2)cc1OC
→ ., 1.75
CCN(C(=O)Cn1cnc2ccccc21)c1ccccc1
→ -0.42, -0.8
C=CCn1c(CCn2c3ccccc3c3ccccc32)n[nH]c1=S
→ -0.375, 0.25
CCCOc1ccc(N2CC(C(=O)Nc3ccc4c(c3)OCO4)CC2=O)cc1 (stereo unspecified)
→ -0.035, 0.7
COc1cccc2sc(=NC(=O)C3CCCCC3)n(C)c12
→ 0.13, -0.35
C=CCn1c(=O)c2ccccc2n2c(SC3CCOC3=O)nnc12 (stereo unspecified)
→ ., -0.5
COc1ccc(CCNC(=O)c2ccc3c(c2)nc(C)n3-c2cc(OC)c(OC)c(OC)c2)cc1OC
→ -1.16, .
O=C(Oc1ccc2c(c1)oc(=O)c1ccccc12)c1ccco1
→ 0.955, -0.4
c1cc(C23CC4CC(CC(C4)C2)C3)ccc1CN1CCOCC1
→ 0.285, -0.25
CCOC(=O)c1ccc(NC(=O)c2cc(C)nn2-c2ccccc2)cc1
→ 0.175, 0.2
O=C(COc1ncnc2ccccc12)NCCC1=CCCCC1
→ -0.29, 2.1
O=C(NC1CCN(Cc2ccc(Cl)c(Cl)c2)CC1)c1ccccc1
→ 0.53, .
CNC(=O)c1cc(C#N)c(SC)s1
→ -0.475, 1
CCCS(=O)(=O)N1CCC(C(=O)NC(C)C)CC1
→ ., 1.1
COc1cc(/C=C/C(=O)NCCn2ccc3ccccc32)cc(OC)c1OC
→ 7.89, -0.15
CN(C)C(CNC(=O)c1ccc(S(=O)(=O)NCc2ccco2)cc1)c1ccccc1 (stereo unspecified)
→ ., 0.15
CCSc1nnc(NC(C)=O)s1
→ i, -0.05
COc1cccc(CNn2c(-c3cc(OC)c(OC)c(OC)c3)nc3ccccc3c2=O)c1O
→ -0.285, .
COc1ccc(C2CC(C(F)(F)F)n3nc(C(=O)Nc4ccc(C(C)O)cc4)c(Cl)c3N2)cc1OC (stereo unspecified)
→ 0.225, .
OCCN1CN(Cc2cccc(Cl)c2)Cn2c1nc1ccccc12
→ ., 1.65
O=S(=O)(NCCNc1ccccc1)c1cccc(F)c1
→ -0.56, .
COc1ccc(-c2noc(CC(=O)N3CCCCCC3)n2)cc1
→ 0.755, 0.6
O=C(Nc1nc2ccccc2s1)c1c(O)nc2sc3ccccc3n2c1=O
→ 0.135, .
CC(C)c1ccc(C2/C(=C(\O)c3ccccc3)C(=O)C(=O)N2CCN(C)C)cc1 (stereo unspecified)
→ 0.16, .
N#CCC(=O)c1ccccc1
→ -0.475, 0.4
Cc1ccc(Nc2ssc(=O)c2Cl)cc1C
→ ., 0.2
CC(C)CNC(=O)Nc1ccccc1F
→ 0.71, 0.75
COC(=O)c1cc(C)nc(Sc2n[nH]c(-c3cc(Cl)cc(Cl)c3)n2)n1
→ 0.445, -0.8
CN(C(=O)c1ccc2c(Cl)c3c(nc2c1)CCCC3)c1ccc(Cl)cc1
→ -0.87, -0.25
COC(=O)C1=CN(Cc2ccc(OC)c(OC)c2)C=C(C(=O)OC)C1c1cc(OC)c(O)c([N+](=O)[O-])c1
→ 0.23, .
Cc1ccc2c(Sc3ccc(Cl)cc3)c(C(=O)NC3CCCC3)[nH]c2c1
→ -0.53, 0.2

Complete entries from above.
CN(C(=O)c1ccc2c(Cl)c3c(nc2c1)CCCC3)c1ccc(Cl)cc1 reads CapD inh = -0.87; AID504770 = -0.25
CC(C)CNC(=O)Nc1ccccc1F reads CapD inh = 0.71; AID504770 = 0.75
